Bioassay records (PubChem BioAssay)
D2 potentiator = positive allosteric modulators of human D2 dopamine receptor; potentiation, % (no concentration beside the values); 0.23% of 360,000 active; DiscoveRx D2 beta-arrestin cells, luminescence, 90 min; 100% = 57 uM dopamine signal; P14416; active = potentiation of 50% or more; inconclusive = 30% to 50%; inactive = 30% or less;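 note: compound concentration not given in the record; tested on top of an EC20 dose of dopamine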
Target sequence (P14416 whole entry, looked up): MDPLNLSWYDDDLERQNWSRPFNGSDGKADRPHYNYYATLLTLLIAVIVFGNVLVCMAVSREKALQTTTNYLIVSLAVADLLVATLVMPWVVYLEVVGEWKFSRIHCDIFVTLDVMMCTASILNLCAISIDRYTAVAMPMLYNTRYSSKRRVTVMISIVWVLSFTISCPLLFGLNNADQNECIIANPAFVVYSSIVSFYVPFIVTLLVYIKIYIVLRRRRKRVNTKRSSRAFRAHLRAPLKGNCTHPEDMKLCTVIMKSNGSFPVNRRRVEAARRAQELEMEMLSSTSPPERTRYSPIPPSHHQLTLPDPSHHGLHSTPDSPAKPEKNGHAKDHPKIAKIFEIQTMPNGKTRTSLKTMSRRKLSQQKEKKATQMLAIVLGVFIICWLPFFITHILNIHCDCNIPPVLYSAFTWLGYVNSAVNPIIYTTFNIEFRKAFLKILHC
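PathHunter D2 cells, attached overnight at 37 deg C, received compound in DMSO plus dopamine at EC20 (50 nM final) for 90 min at 37 deg C. Beta-arrestin recruitment was read as luminescence after 1 h with detection reagent at ambient temperature.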
ClpP mod = qHTS Assay for Activators of ClpP; ATP-dependent Clp protease proteolytic subunit (Bacillus subtilis (strain 168)), P80244; purified B. subtilis ClpP, FRET peptide cleavage, 20 min; Potency, µM (titrated, usually from 57.5 µM), inactives show at the highest dose activity change, negative = active; 1.9% of 340,000 active; AID 651965, 2013; active = well fitted falling curve with a large enough effect; inconclusive = small, poorly fitted or top-dose-only effect; inactive = no such curve, though single readings can be large or run the other way; note: potency is the fitted concentration of half-maximal effect; the source files actives as falling curves though it sought activators and does not explain the sign; nearly all actives have a fitted effect of over 65% in size; many hits overshoot -100%
Target sequence (P80244 whole entry, looked up): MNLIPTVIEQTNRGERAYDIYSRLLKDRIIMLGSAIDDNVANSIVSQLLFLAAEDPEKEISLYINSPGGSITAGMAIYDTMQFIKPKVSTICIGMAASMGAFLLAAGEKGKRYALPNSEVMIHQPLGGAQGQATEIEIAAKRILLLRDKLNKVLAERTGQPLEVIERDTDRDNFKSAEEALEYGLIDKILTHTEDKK
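ClpP 10 microg/mL final, pH 8 Tris/KCl buffer with BSA, glycerol, Tween-20; compound pinned in; FRET-FV substrate; RT 20 min; Ex320/Em430; ΔFRET vs ADEP 5.8 microM, DMSO, no enzyme.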
Sfp inh = blocks B. subtilis Sfp PPTase activity | Potency, µM, for the others: max response, negative = inhibition, usual class: inhibitors | AID 1490 | Q9F4F7 | 3.5% of 310,000 active | Biochemical Sfp PPTase activity, qHTS; active = well fitted inhibition curve with a large enough effect; inconclusive = small, poorly fitted or top-dose-only effect, or another doubt; inactive = no such curve, though single readings can be large or run the other way;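 note: the enzyme is Sfp with the accession as filed and its product quenches rhodamine fluorescence; potency is the fitted concentration of half-maximal effect; 0% = enzyme reaction without inhibitor and -100% = no enzyme wells; top concentration of the series not given in the record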
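Sfp 15 nM + cpd, 15 min RT; start w/ rhodamine-CoA 5 uM, BHQ-2-YbbR 12.5 uM (final); 50 mM Hepes pH 7.6, 10 mM MgCl2, 0.01% NP-40, 0.01% BSA; read 525/598 nm at 0 and 30 min.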
Menin MLL FP FL = displaces fluorescein MLL peptide from human menin. Fluorescence polarization, fluorescein-MLL peptide displacement from menin. FP activity change, % at 61.4 µM. 290,000 tested, under 10 active. AID 1766; inconclusive = falling polarisation curve, or a change in total fluorescence; inactive = total fluorescence flat and polarisation flat or rising; no compound was filed as active; the % refers to the polarisation; negative = inhibition;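 note: % of control where 0% means no effect; inhibitors lower the polarisation; unlabelled MLL peptide was the positive control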
gsp ag = activates gsp, the McCune-Albright syndrome mutation | gsp mutant cells, cAMP HTRF, 30 min; control for the full effect not named in the record | Potency, µM (doses to about 76.9 µM), without a hit: at the top dose activation (cAMP increase), most hits filed as activators | 0.13% of 340,000 active | AID 624287; active = well fitted activation curve with a large enough effect; inconclusive = small, poorly fitted or top-dose-only effect, or another doubt; inactive = no such curve, though single readings can be large or run the other way; cell line not stated here;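 note: phosphodiesterase inhibitor Ro 20-1724 added with compounds to block cAMP breakdown; potency is the fitted concentration of half-maximal effect; nearly all actives have a fitted effect of over 60% in size; about a fifth of the inactives were tested at one dose only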
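Cells stably selected in G418 were plated at 2000/well, grown 16-24 hr, then given compounds in DMSO with the PDE inhibitor […] (300 uM solution added) for 30 min at 37C; cAMP was read by HTRF.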
TRPV1 potentiator = enhances activation of the human vanilloid receptor TRPV1; Q8NER1; TRPV1-expressing cells, Fluo-8 calcium influx, capsaicin EC20 potentiation; host cell line not named in the record; control for the full effect not named in the record; potentiation, % at 8.33 µM; 0.02% of 320,000 active; AID 540277; active means potentiation above 80%; inconclusive means 30% to 80%; inactive means below 30%; note: 0% is about no effect
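Cells expressing TRPV1 were dye-loaded with Fluo-8 and read kinetically: 10 s baseline, 3 min after compound (agonist portion), then 2 min after EC20 capsaicin (allosteric enhancer portion). Calcium-bound dye fluorescence at 480/520 nm.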
gsp antagonist = antagonizes gsp, the McCune-Albright syndrome mutation | gsp-mutant cells, cAMP HTRF, 30 min; control for the full effect not named in the record | Potency, µM (top dose mostly 76.9 µM), for inactives: top-dose activity change, negative = inhibition, usual class: inhibitors | 0.4% of 340,000 active | AID 624288; active = falling curve of any shape with a large fitted effect; inconclusive = falling curve, mostly with a smaller effect; inactive = flat or rising curve; cell line not stated here;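 note: intracellular cAMP measured with PDE inhibitor Ro 20-1724 present during compound exposure; potency is the fitted concentration of half-maximal effect; % is set by controls: 0 for no effect and ±100 for the full control effect; nearly all actives have a fitted effect of over 65% in size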
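Cells, 2000/well, grown 16–24 h in DMEM 10% FBS with 0.5 mg/ml G418, then compounds plus […] (300 uM addition stock), 30 min at 37C. cAMP read by HTRF (cAMP-d2 and anti-cAMP antibody-K in lysis buffer) after 30 min RT.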
* marks the source's active call; other numbers are inactive results; u = inconclusive; x = not tested or not shown; [ ] = dose if it differs, or a comment.

Below each compound: D2 potentiator	ClpP mod	Sfp inh	Menin MLL FP FL	gsp ag	TRPV1 potentiator	gsp antagonist
COc1ccc([N+](=O)[O-])cc1N(CC(=O)NCc1ccco1)S(C)(=O)=O
    -8	x	18%	-1.1	17%	-4	3%
CNCCCC1Sc2ccccc2Oc2ccccc21 (stereo not given)
    -44	-1.2%	-14%	-0.8	-26%	4	23%
CCOc1ccc(-c2nc(C)c(C(C)=O)n2O)cc1
    -19	-2.5%	18µM*	-3.6	-33%[inhibitor]	10	4%
O=C(Nc1ccc(Cl)cc1)N1CCN(C(=O)C2CCCO2)CC1 (stereo not given)
    -6	1.3%	-6%	-1.8	-25%	1	-17%
O=C(CCC(=O)NNc1nc2ccccc2c2nc(-c3ccccc3)nn12)NCCCN1CCOCC1
    2	-2.5%	17%	2.8	27%	-7	0%
CCc1nnc(NC(=O)CSc2nnc(-c3ccccc3NC(=O)c3ccccc3)o2)s1
    12	u	-7%	-1.2	u	23	7%
CCCCCCN=CC1=C(O)CC(C)(C)CC1=O
    6	0.4%	9%	3.3	0%	-10	0%
O=C(CN1CCN(S(=O)(=O)c2ccccc2F)CC1)Nc1ccnn1C1CCCC1
    5	-0.2%	x	x	-2%	-4	-5%
C=CCN=C1CCCc2c1[nH]c1ccc(C)cc21
    -8	-26%	-17%	-1.5	-51%[inhibitor]	-19	11%
Cc1onc(-c2c(F)cccc2Cl)c1C(=O)OCC(=O)NC1CC1
    -13	-0.4%	25%	-8.8	u	2	2%
Cc1cccc(NC(=O)c2cnn3ccccc23)c1C
    -15	-0.2%	14%	-0.4	u	13	1%
COc1ccccc1/C=C1\SC(=S)N(N2C(=O)CCCC2=O)C1=O
    0	x	1%	-0.6	3%	-7	-14%
Cc1ccc(-c2cc(-c3ccccc3O)nc(N/N=C/c3cccnc3)n2)cc1
    3	0.2%	-12%	4.3	-8%	-5	3%
Cc1cccc(C(=O)NC2CCN(C(=O)Nc3ccc(F)cc3)CC2)c1
    -6	x	11%	-1.4	0%	-3	-3%
Cc1c(C(=O)N2CCC2)oc2c(F)cccc12
    -13	13µM*	x	x	-4%[15.4 µM]	x	-1%
Cc1nccn1CCC(=O)NC1CC(C)(C)Cc2c1cnn2-c1ccccc1 (stereo not given)
    -4	1.0%	x	x	3%	x	x
COc1ccc(CNC(=O)[C@H](C)NC(=O)C2CC(=O)N(c3ccc(OC)cc3)C2)cc1 (stereo not given in full)
    -5	0.7%	12%	-1.4	u	-2	-3%
CCc1ccc(-c2nn(Cc3ccccc3)cc2/C=C/C(=O)O)cc1
    -5	-3.8%	11%	-1.3	0%	14	u
CCCOc1ccc(-c2cnc(SCC(N)=O)nc2N)cc1
    -1	-3.4%	2%	2.4	1%	-11	-7%
CS(=O)(=O)Nc1ccc(C(=O)NC2CCCC2)cc1
    -1	-8.1%	-2%	-4.0	-11%	1	-1%
Clc1ccc2c(NCc3cccs3)ncnc2c1
    8	-1.9%	4%	4.6	4%	18	1%
O=C1CC(c2ccccc2F)C2=C(COC2=O)N1 (stereo not given)
    -1	x	13%	0.6	-13%[15.4 µM]	u	17%
CC(C(=O)c1ccccc1)n1cnc2ccccc2c1=O (stereo not given)
    1	0.0%	4%	-2.5	10%	-4	12%
CCCCOc1cccc(C(=O)O)c1
    -32	0.4%	3%	7.2	-1%	u	0%
CNC(=O)c1oc(-c2ccc(Cl)cc2)nc1C
    -6	-25%	-24%	1.6	7%	-9	-3%
CC(=NNc1nc2ccccc2o1)c1cc2ccccc2cn1
    -4	-3.2%	x	x	-1%	x	-12%
CCOC1(NC(=O)c2ccccc2)C(C)=CC(=O)C=C1C
    1	0.5%	-4%	1.4	-14%	-3	10%
COc1ccc(/C=C/C(=O)c2c(O)c(OC)c3occc3c2OC)cc1
    -16	-3.4%	-28%	-2.2	1%	17	-12%
Cc1nn(C(=O)CNC(=O)c2ccccc2)c(C)c1C
    -3	-3.8%	-11%	-1.9	7%[15.4 µM]	-8	2%
CCNS(=O)(=O)c1cc(S(C)(=O)=O)ccc1Cl
    2	-0.6%	28%	14	-29%	-1	1%
CCN(CC)C1CC(=O)N(c2cccc(C)c2)C1=O (stereo not given)
    x	x	-18%	0.2	x	-7	x
COc1cccc(NC(=O)CSc2nnc(-c3cc(-c4ccccn4)nc4ccccc34)o2)c1
    -14	0.5%	-6%	-0.2	-1%	18	-13%
Cc1cc(C)cc(C(=O)NCC(=O)N2CCN(C(c3ccccc3)c3ccccc3)CC2)c1
    5	x	16%	-1.2	-10%	-10	u
CCC(=O)Nc1nc(CC(=O)Nc2ccccc2)cs1
    0	1.6%	5%	3.3	5%	2	2%
CCN1C[C@@H]2[C@@H]3C(=O)N(Cc4ccccc4)C(=O)[C@@H]3[C@](Cc3ccccc3)(C(=O)OC)N2C1=NC1CCCCC1
    -12	-1.7%	x	x	x	x	-1%
CCSc1nc(NCCN(C)C)c2c3c(sc2n1)COC(C)(CC)C3 (stereo not given)
    -22	x	3%	-1.1	3%[15.4 µM]	x	5%
Cc1nc2c(oc3ccc(Cl)cc32)c(=O)[nH]1
    -9	-27%	2%	-0.3	12%	-3	9%
Cc1ccc(NC(=O)CCS(=O)(=O)c2ccc(Br)cc2)nc1
    10	-4.2%	5%	4.8	6%	-1	4%
C=CCNc1nnc(SC2CC(=O)N(c3ccc(OC)cc3)C2=O)s1 (stereo not given)
    -7	-3.0%	u	-1.3	-46%[inhibitor]	4	-11%
O=C(Nc1ccc(S(=O)(=O)NC2=NCCCCC2)cc1)c1cccs1
    1	-2.6%	x	x	-24%	x	5%

In another format: 3 of the compounds above
SMILES: CCN1C[C@@H]2[C@@H]3C(=O)N(Cc4ccccc4)C(=O)[C@@H]3[C@](Cc3ccccc3)(C(=O)OC)N2C1=NC1CCCCC1
  D2 potentiator: -12
  ClpP mod: -1.7%
  Sfp inh: x
  Menin MLL FP FL: x
  gsp ag: x
  TRPV1 potentiator: x
  gsp antagonist: -1%

SMILES: COc1cccc(NC(=O)CSc2nnc(-c3cc(-c4ccccn4)nc4ccccc34)o2)c1
  D2 potentiator: -14
  ClpP mod: 0.5%
  Sfp inh: -6%
  Menin MLL FP FL: -0.2
  gsp ag: -1%
  TRPV1 potentiator: 18
  gsp antagonist: -13%

SMILES: CCOC1(NC(=O)c2ccccc2)C(C)=CC(=O)C=C1C
  D2 potentiator: 1
  ClpP mod: 0.5%
  Sfp inh: -4%
  Menin MLL FP FL: 1.4
  gsp ag: -14%
  TRPV1 potentiator: -3
  gsp antagonist: 10%

Further results follow:
Below each compound: D2 potentiator	ClpP mod	Sfp inh	Menin MLL FP FL	gsp ag	TRPV1 potentiator	gsp antagonist
O=c1ccn(Cc2ccccc2)cc1
    -6	1.4%	23%	-0.1	x	-23	12%
CC1(C)CC(=O)C2=C(C1)N(Cc1ccco1)C(=O)C2(O)C(F)(F)F (stereo not given)
    -14	-1.1%	4%	3.6	-9%	5	-5%
COC(=O)CC/C(C)=N\Nc1ccc([N+](=O)[O-])cc1[N+](=O)[O-]
    0	0.3%	13%	1.4	4%	7	-17%
CCC(C)NC(=O)CC(NS(=O)(=O)c1ccc(C)cc1)c1ccc(OC)cc1 (stereo not given)
    -16	3.7%	23%	3.2	-5%	10	-4%
CCOC(=O)C1Oc2ccccc2C(c2ccc(F)cc2)=C1C(=O)OC (stereo not given)
    -10	-1.3%	7%	1.0[94.6 µM]	x	x	-6%
CSCCC(NC(=O)COc1ccccc1)C(=O)OC(C)C(=O)Nc1ccccc1C (stereo not given)
    3	-4.4%	x	x	-33%[inhibitor]	-2	0%
O=c1nc2n(CCO)c3ccccc3cc-2c(=O)[nH]1
    -8	32µM*	x	x	-6%	x	7%
CCOc1ccc(S(=O)(=O)NCC2CCCO2)cc1 (stereo not given)
    -10	1.1%	13%	-1.3	-33%[inhibitor]	6	-4%
Cc1ccc(-c2nc3ncccc3o2)cc1NC(=O)Cc1ccc(Cl)cc1
    -9	-5.5%	-8%	-1.4	-49%[inhibitor]	-59	5%
Cc1nn(Cc2ccc(C(=O)O)o2)c(C)c1[N+](=O)[O-]
    -3	x	3%	0.5	-2%[15.4 µM]	15	8%
CCC1CCCCN1C(=O)Cn1c(C(=O)OC)cc2ccsc21 (stereo not given)
    -16	-4.1%	19%	2.2	-17%	6	-6%
O=C(NCC1CCCO1)c1ccc2c(c1)OCO2 (stereo not given)
    4	-12%	18%	-3.7	2%	0	1%
O=C(NC1CC2CCCC(C1)N2C(=O)NC1CCCCC1)c1ccccc1 (stereo not given)
    2	-2.7%	10%	0.7	-9%	1	8%
Cn1nnc(NC(=S)NC(=O)c2cccc3c(Br)cccc23)n1
    -31	25%	u	0.2	u	6	11%
C=CCn1cc(CN2CCC(C(=O)Nc3cccc(-c4cccc(F)c4)c3)CC2)c(C)n1
    -30	-0.3%	-5%	x	-23%	3	5%
O=C(Cn1ncc2c(=O)oc3ccccc3c21)NCc1cccnc1
    -2	x	18%	-2.2	u	4	-1%
Cc1c(Cl)cccc1NC(=S)NCc1cccn1C
    15	-0.7%	7%	0.3	22%	-6	6%
Cc1ccc(-c2cc3cccc[n+]3cc2-c2ccc(C)cc2)cc1
    -11	2.8µM*	-7%	-0.5	0%	10	-14%
O=C(c1cc(F)ccc1F)C1CCCN(C(=O)c2ccco2)C1 (stereo not given)
    -4	x	11%	1.6	-4%[15.4 µM]	-8	7%
Cc1nn(Cc2ccc([N+](=O)[O-])cc2)c(=O)n1-c1c(F)cccc1F
    -8	-1.2%	12%	6.2	11%	8	-2%
